Myeloid diff MLP: promotes myeloid progenitor differentiation. ER-HoxA9 myeloid progenitors, lysozyme-GFP differentiation, flow cytometry. calls only at 10 µM. 1% of 360,000 active;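 active = normalized GFP-positive differentiation at or above the plate's own cutoff, the solvent-only control mean plus 3 SD; inconclusive = no clear call, values can overlap the other calls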;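 also: cells exposed to compound for four days before flow analysis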
HIV fusion peptide: cell-free HIV fusion peptide-binding blockers – biochemical, uHTS, fluorescence dequenching, primary screen (AID 1986); cell-free peptide binding, fluorescence dequenching, 30 min; higher % means a stronger effect; one-dose inhibition, % at 20 µM; IC50 in µM for titrated hits; 0.3% of 290,000 active; in the data active = inhibition mostly above about 52%, no sharp cut-off; inactive = mostly below about 76%; also: some results filed as inactive read as strong as hits
KOR beta-arrestin-1: KOR antagonists, beta-arrestin recruitment, cell-based, luminescence, uHTS (AID 1778); KOR beta-arrestin recruitment, luminescence, antagonist mode; higher % means a stronger effect; 0.091% of 290,000 active; inhibition, % at 10 µM, or IC50 in µM where a hit was titrated; in the data active = inhibition above about 50%; also: strong numbers were not always called active
GPR35 antagonists: inhibition of zaprinast-stimulated GPR35 beta-arrestin translocation – imaging, U2OS, beta-arrestin-GFP, zaprinast agonist, primary screen (AID 2058). inhibition, % at 10 µM, or IC50 in µM where a hit was titrated. 0.052% of 290,000 active. U2OS GPR35 beta-arrestin-GFP translocation imaging, zaprinast antagonism; higher % means a stronger effect;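 active = inhibition of at least 50% with at least 30 cells and total cytoplasm GFP at most 10,000,000; inconclusive = under 30 cells or total GFP of 10,000,000 plus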
GPR55 LPI antagonism: GPR55 antagonists blocking LPI-driven arrestin recruitment, primary screen, imaging, U2OS, beta-arrestin-GFP, LPI agonist (AID 2013). 0.13% of 290,000 active. one-dose inhibition, % at 10 µM; IC50 in µM for titrated hits. U2OS GPR55 beta-arrestin-GFP translocation imaging, LPI antagonism; higher % means a stronger effect;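 active = spots per cell inhibited over 60%, with over 100 cells counted and total cytoplasm intensity under 500,000; inconclusive = wells with under 100 cells, flagged as likely toxic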;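 also: U2OS cells stably carrying GPR55 and arrestin-GFP stimulated by 5 µM LPI near EC80; imaged beta-arrestin-GFP aggregate spots per cell after agonist stimulation; plate controls were LPI-stimulated DMSO wells for no effect and DMSO wells without LPI for full effect; some results filed as inactive read as strong as hits; confirmed hits need IC50 under 10 µM and bright autofluorescent wells are also inconclusive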
GPR55 activation: selective activators of receptor GPR55 – imaging, U2OS cells, beta-arrestin-GFP redistribution, primary screen (AID 1961); U2OS GPR55 beta-arrestin-GFP redistribution imaging; higher % means a stronger effect; 0.048% of 290,000 active; activation, % at 10 µM, or EC50 in µM where a hit was titrated;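 active = activation above 40% with more than 50 cells counted in the well; inconclusive = wells holding fewer than 50 cells, flagged as toxic or sparse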;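 also: U2OS osteosarcoma cells stably expressing GPR55 and beta-arrestin-GFP; plate controls were DMSO negative control for no effect and LPI positive control for full effect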
KOR beta-arrestin-2: KOR agonists, beta-arrestin recruitment, primary screen, cell-based, luminescence, uHTS (AID 1777). KOR beta-arrestin recruitment, luminescence; higher % means a stronger effect. activation, % at 10 µM; hits with a dose series show EC50 in µM. 0.02% of 280,000 active; in the data active = activation above about 50%, passing the limit was not always enough; also: a part of the inactive calls stands beside numbers as strong as those of hits
Myeloid diff MLP GFP+ MAC1+ %: recorded beside Myeloid diff MLP, whose call it bears; GFP+ MAC1+ double positive, %; measured here: differentiation confirmed by MAC1 staining
Starred values were filed as active, the others as inactive; i = inactive; ? = inconclusive; . = no result given; [ ] = dose if it differs, or a comment. Only part of the results is shown. The share of hits here may be higher or lower than overall.

Preview, 6 compounds:
SMILES	Myeloid diff MLP	Myeloid diff MLP GFP+ MAC1+ %	HIV fusion peptide	KOR beta-arrestin-1	GPR35 antagonists	GPR55 LPI antagonism	GPR55 activation	KOR beta-arrestin-2
COc1cc(/C=C/C(=O)c2ccc(NS(=O)(=O)c3ccc(C)cc3)cc2)cc(OC)c1O	i	0.2	15%	6%	-10%	21%	2.9%	-5.1%
CN(Cc1nccs1)C(=O)c1cc(COc2cccc3cnccc23)on1	i	0.5	2.1%	36%	-5%	5%	-0.1%	-3.0%
CC1CCC/C=C/C(=O)c2c(O)cc(O)cc2CC(=O)O1 (stereo unspecified)	?	.	5.4%	34%	26%	16%	0.6%	-0.6%
C/C(=N\NC(=O)c1ccc(F)cc1)c1ccccn1	?	.	0.4%	87%*	-9%	12%	0.9%	-1.6%
CCN(CC)S(=O)(=O)c1cccc(-n2c(O)c(C=Nc3ccccc3C(=O)O)c3ccccc3c2=O)c1	i	0.4	52%	-25%	-11%	-3%	-0.2%	6.3%
Cc1ccc(OCC(=O)Nc2ccc(Cl)cc2)c(-n2nc3ccccc3n2)c1	i	1.8	1.9%	-21%	-9%	15%	-0.1%	1.9%

The listing, from the first entry:
SMILES	Myeloid diff MLP	Myeloid diff MLP GFP+ MAC1+ %	HIV fusion peptide	KOR beta-arrestin-1	GPR35 antagonists	GPR55 LPI antagonism	GPR55 activation	KOR beta-arrestin-2
COc1cc(/C=C/C(=O)c2ccc(NS(=O)(=O)c3ccc(C)cc3)cc2)cc(OC)c1O	i	0.2	15%	6%	-10%	21%	2.9%	-5.1%
CN(Cc1nccs1)C(=O)c1cc(COc2cccc3cnccc23)on1	i	0.5	2.1%	36%	-5%	5%	-0.1%	-3.0%
CC1CCC/C=C/C(=O)c2c(O)cc(O)cc2CC(=O)O1 (stereo unspecified)	?	.	5.4%	34%	26%	16%	0.6%	-0.6%
C/C(=N\NC(=O)c1ccc(F)cc1)c1ccccn1	?	.	0.4%	87%*	-9%	12%	0.9%	-1.6%
CCN(CC)S(=O)(=O)c1cccc(-n2c(O)c(C=Nc3ccccc3C(=O)O)c3ccccc3c2=O)c1	i	0.4	52%	-25%	-11%	-3%	-0.2%	6.3%
Cc1ccc(OCC(=O)Nc2ccc(Cl)cc2)c(-n2nc3ccccc3n2)c1	i	1.8	1.9%	-21%	-9%	15%	-0.1%	1.9%
C=CC[n+]1c(/C=C2\C=Cc3cc(C)ccc3N2CC)ccc2ccccc21	?	.	-1.1%	-16%	21%	11%	-0.8%	-4.1%
C(=N\Nc1nc2ccccc2s1)/c1ccccn1	.	.	2.4%	47%	-7%	4%	0.3%	1.6%
c1ccc(-c2noc(-c3ccc4ccccc4c3)n2)cc1	i	4.1	4.0%	0%	0%	11%	-0.1%	14%
CC(=O)Nc1c(S(=O)(=O)c2ccccc2)c2nc3ccccc3nc2n1Cc1ccccc1	i	0.5	-1.5%	3%	12%	3%	0.2%	3.0%
Cc1sc(NC(=O)C2CCCCC2C(=O)O)c(C(N)=O)c1-c1ccccc1 (stereo unspecified)	i	1.0	3.6%	-10%	15%	3%	0.5%	3.2%
COCCOC(=O)c1[nH]c2c(c1C)C(=O)CC(c1cc(OC)c(OC)c(OC)c1)C2 (stereo unspecified)	i	0.4	0.4%	-12%	-4%	-2%	0.7%	2.7%
NC(=S)n1[nH]c(-c2ccc([N+](=O)[O-])cc2)c(N=Nc2cccc(Cl)c2)c1=O	i	0.3	23%	-67%	-24%	11%	-0.5%	-1.3%
COCCN(CC(=O)NC1CCCCC1)C(=O)/C=C/C(=O)c1ccc(OC)cc1O	.	.	-1.2%	7.1µM*	16%	14%	3.2%	.
COc1ccc(CCNc2ncnc3sccc23)cc1OC	.	.	0.6%	22%	-6%	-3%	-0.2%	-0.2%
CC1C/C(=C/c2ccccn2)C(=O)/C(=C/c2ccccn2)C1 (stereo unspecified)	i	1.7	2.6%	-25%	-7%	8%	2.4%	1.5%
Cc1nc(N2CCC(C(N)=O)CC2)c2c(-c3cccs3)csc2n1	i	0.9	0.1%	8%	-8%	-2%	0.0%	-0.1%
Cc1nc2ccccc2c(C)c1C(=O)c1ccc(F)cc1	i	0.4	0.0%	-13%	1%	2%	-0.1%	1.1%
CN(C)S(=O)(=O)Oc1ccc(Cl)cc1C(=O)Nc1cccc(C(F)(F)F)c1	i	0.7	2.5%	2%	-6%	17%	-0.1%	4.6%
O=C(Cn1ncc(Cl)c(Cl)c1=O)N1CCc2ccccc21	?	.	-2.4%	5.5µM*	10%	23%	0.2%	17%

Shown with values under each structure: part of the list above.
Results follow in this order: Myeloid diff MLP | Myeloid diff MLP GFP+ MAC1+ % | HIV fusion peptide | KOR beta-arrestin-1 | GPR35 antagonists | GPR55 LPI antagonism | GPR55 activation | KOR beta-arrestin-2
CN(C)S(=O)(=O)Oc1ccc(Cl)cc1C(=O)Nc1cccc(C(F)(F)F)c1
  i | 0.7 | 2.5% | 2% | -6% | 17% | -0.1% | 4.6%
CCN(CC)S(=O)(=O)c1cccc(-n2c(O)c(C=Nc3ccccc3C(=O)O)c3ccccc3c2=O)c1
  i | 0.4 | 52% | -25% | -11% | -3% | -0.2% | 6.3%

(cont.)
SMILES	Myeloid diff MLP	Myeloid diff MLP GFP+ MAC1+ %	HIV fusion peptide	KOR beta-arrestin-1	GPR35 antagonists	GPR55 LPI antagonism	GPR55 activation	KOR beta-arrestin-2
COc1cccc(/C=N/NC(=O)CNC(=O)/C=C\c2ccccc2)c1O	i	2.9	3.0%	26%	7%	4%	-0.1%	-4.8%
N#Cc1c2ccc(O)cc2n2ccccc12	i	0.1	3.6%	-73%	6%	-12%	0.2%	5.8%
Cc1ccc(N=Cc2cc(Cc3ccccc3Cl)cc([N+](=O)[O-])c2O)c(O)c1	i	0.1	64%*	-96%	-48%	-19%	2.1%	9.1%
COc1ccc(S(=O)(=O)N2CCC(C(=O)NCC3CCCO3)CC2)cc1C (stereo unspecified)	i	3.7	-3.3%	-22%	-1%	4%	-0.2%	2.0%
CCC(=O)Nc1ccc(C(=O)Cn2ncc(Cl)c(Cl)c2=O)cc1	?	.	1.0%	31%	-7%	4%	-0.1%	-5.1%
Cn1c(=NC(=O)CCl)sc2ccccc21	i	4.4	0.0%	-36%	13%	7%	-0.1%	7.3%
CC(=O)c1cn(CCCCCCCCCCn2cc(C(C)=O)c(=O)[nH]c2=O)c(=O)[nH]c1=O	.	.	-2.8%	8%	0%	7%	-0.1%	0.8%
N#CCCS(=O)(=O)c1nnnn1-c1ccccc1	.	.	-2.0%	-18%	-1%	10%	0.6%	1.6%
COc1ccccc1-c1cc(C(F)(F)F)nc(S(=O)(=O)CCCC(=O)Nc2cccnc2Cl)n1	?	.	-0.1%	22%	36%	34%	2.9µM*	-0.9%
CC(C)(C)C1C/C(=C/c2ccccn2)C(=O)/C(=C/c2ccccn2)C1 (stereo unspecified)	?	.	3.1%	-28%	3%	27%	26%	12%
CCc1ccc(S(=O)(=O)Nc2cc(SCC(=O)O)c(O)c3ccccc23)cc1	i	0.0	34%	-28%[20 µM]	-4%	-1%	0.2%	1.4%
O=C(N/N=C/c1c(O)ccc2ccccc12)c1ccc(Br)o1	?	.	3.0%	-14%	-6%	10%	-0.1%	0.4%
O=C(CN1CCCC1)N/N=C/c1c(O)ccc2ccccc12	i	0.8	3.5%	6%	3%	-7%	-0.2%	4.6%
O=C(NC(=S)Nc1ccccn1)c1ccccc1	i	0.4	-1.0%	45%	0%	-19%	-0.1%	4.9%
COC(=O)C1=CO[C@@H](C)[C@H]2CN3CCc4c([nH]c5ccccc45)[C@@H]3C[C@H]12	i	3.4	.	.	.	.	.	.
COc1ccccc1-c1nc(-c2cccc(C)c2)no1	i	0.2	-2.2%	-51%	9%	11%	-0.1%	1.3%
Nc1nc2ccccc2n1C(=O)c1ccc(F)cc1	i	0.1	0.1%	-45%[20 µM]	5%	15%	-0.1%	.
CCCc1ccc(-c2c(C)sc(NC(=O)c3ccnn3C)c2C#N)cc1	i	0.4	1.2%	-12%	-11%	-12%	-0.1%	-2.5%
Cc1nn(C(=O)c2ccco2)c(C)c1Sc1ccc(Br)cc1	i	0.4	-0.7%	-14%	27%	14%	-0.1%	4.6%
Cc1cccc(-c2nnc(SCC(=O)NCc3ccc4c(c3)OCO4)n2C)c1	i	0.6	0.0%	-10%	-1%	19%	-0.3%	0.3%
CCOC(=O)/C=C/C(=O)Nc1cccc([N+](=O)[O-])c1	i	0.8	6.4%	18%	16%	8%	-0.3%	3.2%
Cc1ccc(-c2csc(N3CCC(NS(=O)(=O)c4ccc5c(c4)OCCO5)CC3)n2)cc1	i	1.6	-2.0%	-51%	-6%	9%	0.2%	5.7%
OCCCNc1nccc(-c2cc(Nc3cccc(Cl)c3)ncn2)n1	?	.	-0.9%	.	1%	-7%	-0.2%	-1.3%
C/C(=N\NC(=O)c1cc(-c2cccs2)nc2ccccc12)c1ccccn1	?	.	4.9%	75%*	-8%	22%	-0.3%	-9.2%
CCOC(=O)c1sc(NC(=O)CSc2n[nH]c(-c3ccccc3)n2)c(C#N)c1C	i	0.6	4.4%	-60%	13%	-25%	-0.3%	-2.8%
Cc1c(C)c2ccc(OCC(=O)Nc3ccccn3)c(C)c2oc1=O	i	0.0	1.7%	-10%	20%	-2%	-0.1%	0.3%
CCOC(=O)c1ccccc1N/C=C/C(=O)c1cccs1	i	0.4	-1.5%	-3%	1%	13%	-0.2%	-3.3%
Cc1ccc(S(=O)(=O)c2cc3cc(Br)ccc3oc2=O)cc1	i	0.6	-2.3%	-49%	15%	3%	-0.2%	-3.5%
O=C(Sc1cccc2cccnc12)c1ccc(F)cc1	.	.	-1.0%	74%*	-6%	4%	0.4%	-3.1%
Cc1cc(C)c(C(=O)/C=C/c2ccc(C(C)C)cc2)c(=O)[nH]1	i	19	-1.4%	16%	9%	21%	1.1%	-0.9%
O=C(O)CCSc1nnc(-c2ccc3c(c2)OCO3)o1	i	1.6	-3.1%	-13%	-5%	10%	-0.1%	-2.5%
Cc1csc(NC(=O)Nc2ccccc2[N+](=O)[O-])n1	i	0.4	-1.7%	-27%[20 µM]	-8%	-4%	0.5%	-5.3%
O=C1/C(=C/c2cccnc2)CCC/C1=C\c1cccnc1	.	.	1.9%	-13%	-9%	21%	0.1%	-1.5%
CC(C)n1c(CN(C)Cc2ccccc2)nc2c1c(=O)n(C)c(=O)n2C	.	.	-0.5%	-22%	5%	5%	0.0%	7.8%
CC(=O)Nc1nc(C)c(-c2csc(Nc3ccc(O)cc3)n2)s1	i	0.8	-3.3%	25%	1%	-7%	0.0%	-0.3%
CC(=O)/C=C/n1c(=S)oc2ccccc21	.	.	0.4%	-76%	4%	7%	-0.3%	7.2%
CC1CCN(Cc2c(C(=O)N/N=C/c3cc(Br)ccc3O)nnn2-c2nonc2N)CC1	i	3.2	-0.6%	-12%	2%	2%	1.6µM*	0.4%
O=C(Nc1ccc(S(=O)(=O)Nc2ccc(F)cc2)cc1)c1ccc(CN2CCOCC2)cc1	i	0.2	-0.8%	-31%	-2%	-4%	-0.2%	4.2%
O=C(CCCc1nc(-c2ccc(Cl)cc2)no1)NC1CCCCC1	.	.	0.7%	-24%	8%	-1%	-0.2%	-1.6%

Screening results as filed in PubChem BioAssay.
